Bioassay records from PubChem.
SARS PLP yeast: blocks SARS-CoV papain-like protease in a yeast assay; 330,000 tested, 0.19% active; Potency, µM (highest dose often 32.9 µM), inactives show at the top dose activity, positive = growth rescue; S. cerevisiae expressing SARS-CoV PLpro, growth rescue; control for the full effect not named in the record; active means well fitted rising curve with a large enough effect; inconclusive means small, poorly fitted or top-dose-only effect; inactive means no such curve, though single readings can be large or run the other way; further: 0% is about no effect; nearly all actives have a fitted effect of over 55% in size; growth read by luminescence after 48 h
2A StopGo: lowers the luciferase signal of an FMDV 2A StopGo reporter; human cells with a luciferase reporter of 2A StopGo recoding; control for the full effect not named in the record; 410,000 tested, 1.2% active; Potency, µM (titrated, usually from 57.9 µM), without a hit: top-dose signal change, negative = less light; active = well fitted falling curve with a large enough effect; inconclusive = small, poorly fitted or top-dose-only effect; inactive = no such curve, though single readings can be large or run the other way; tested in HEK293T cells; further: on the % scale 0 is the no-effect control and ±100 the full control effect; nearly all actives have a fitted effect of over 45% in size; luciferase light after 4 h
RE007 growth inh: less growth of the S. pombe RE007 Vpr strain. S. pombe RE007 Vpr strain, BacTiter-Glo ATP luminescence, 24 h; control for the full effect not named in the record. Potency, µM (highest dose often 92.2 µM), for inactives: at the top dose activity change, negative = less growth. 360,000 tested, 0.21% active. AID 651644; active = well fitted falling curve with a large enough effect; inconclusive = small, poorly fitted or top-dose-only effect; inactive = no such curve, though single readings can be large or run the other way;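 further: on the % scale 0 is the no-effect control and ±100 the full control effect; nearly all actives have a fitted effect of over 50% in size; the assay follows cell death caused by Vpr and the record does not say whether a fall means rescue or toxicity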
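Fission yeast RE007 carrying one integrated HIV-1 vpr copy, seeded at OD 0.01 in PMG+AL medium with 23 nL pinned compound. Grown 24 h at 30 degrees; viability read by BacTiter-Glo luminescence after 5 min.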
LASV entry inh: Lassa virus entry inhibition | Lassa virus pseudotype entry inhibition, cell reporter; control for the full effect not named in the record | Potency, µM (series often up to 37.9 µM), for inactives: top-dose activity change, negative = inhibition, hits mostly inhibitors | 300,000 tested, 1.2% active; active means well fitted inhibition curve with a large enough effect; inconclusive means small, poorly fitted or top-dose-only effect, or effect the other way; inactive means flat fitted curve, though single readings scatter; tested in HEK293 cells; further: on the % scale 0 is the no-effect control and ±100 the full control effect; nearly all actives have a fitted effect of over 50% in size; luciferase read-out
NS1 function inh: influenza NS1 inhibition. Potency, µM (titrated, usually from 46.1 µM), for the others: at the highest dose activity, positive = more growth. AID 2326. S. cerevisiae slowed by influenza A NS1, growth recovery by OD600. 270,000 tested, 0.4% active; active means well fitted rising curve with a large enough effect; inconclusive means small, poorly fitted or top-dose-only effect; inactive means no such curve, though single readings can be large or run the other way; further: nearly all actives have a fitted effect of over 50% in size
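A cell-based growth assay was used: compounds that relieve NS1-induced slow growth of budding yeast raise OD600. Assay medium was yeast nitrogen base with ammonium sulphate and -URA supplement, pH 6.0, with 2% galactose.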
Cruzain Triton: inhibitors of Trypanosoma cruzi cruzain with detergent | P25779 | purified cruzain, Z-FR-AMC fluorescence, 0.01% Triton | Potency, µM, without a hit: max response, negative = inhibition, usual class: inhibitors | 200,000 tested, 0.43% active | AID 1478;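 further: plate controls were neutral wells for no effect and buffer without enzyme for full effect; nearly all actives have a fitted effect of over 40% in size; top concentration of the series not given in the record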
Target sequence (P25779 123-467 limits assumed): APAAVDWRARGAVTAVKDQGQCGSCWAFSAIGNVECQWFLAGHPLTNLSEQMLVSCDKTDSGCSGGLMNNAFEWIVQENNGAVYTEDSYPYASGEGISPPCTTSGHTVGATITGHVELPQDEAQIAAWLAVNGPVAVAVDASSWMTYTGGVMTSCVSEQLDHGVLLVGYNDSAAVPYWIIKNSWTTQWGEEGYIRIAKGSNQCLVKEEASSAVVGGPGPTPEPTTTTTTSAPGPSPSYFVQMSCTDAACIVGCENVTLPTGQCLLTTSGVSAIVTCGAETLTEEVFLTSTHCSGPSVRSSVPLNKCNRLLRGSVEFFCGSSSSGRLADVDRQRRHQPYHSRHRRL
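Detergent-containing run (0.01% Triton X-100) in acetate buffer pH 5.5 with 5 mM DTT: enzyme at 1.5 nM final, 15 min compound preincubation at room temperature, then 2 uM Z-FR-AMC substrate. Activity taken as 60 s fluorescence increase at 360/450 nm.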
MARV entry inh: Marburg virus entry inhibition. Marburg virus pseudotyped entry inhibition, cell reporter; control for the full effect not named in the record; about a third of the inactives were read at about 46 µM. Potency, µM (doses to about 37.8 µM), for inactives: at the top dose activity change, negative = inhibition, hits mostly inhibitors. AID 540276. 300,000 tested, 1.8% active; active = well fitted inhibition curve with a large enough effect; inconclusive = small, poorly fitted or top-dose-only effect, or effect the other way; inactive = flat fitted curve, though single readings scatter; tested in HEK293 cells; about a fifth of its hits are not listed in these tables; further: on the % scale 0 is the no-effect control and ±100 the full control effect; luciferase read-out
Cruzain inh noDet: blocks cruzain activity in detergent-free assay. 200,000 tested, 2.3% active. Potency, µM, for inactives: max response, negative = inhibition, hits mostly inhibitors. P25779. AID 1476. purified cruzain, Z-FR-AMC fluorescence, no detergent;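 further: plate controls were enzyme without inhibitor for no effect and buffer without enzyme for full effect; nearly all actives have a fitted effect of over 40% in size; top concentration of the series not given in the record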
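Detergent-free condition (0.00005% Triton X-100) in acetate buffer pH 5.5 with DTT. 1.5 nM enzyme and compound were pre-mixed 15 min, then 2 uM Z-FR-AMC substrate added; reaction progress from fluorescence change between first and third reads (60 s).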
Starred values were filed as active, the others as inactive; ? = inconclusive; . = no result given; & = joins results of further samples; [ ] = another dose, or the depositor's remark. Unless noted, the call rests on the fitted dose curve; in most records, active means well fitted curve in the direction sought with a large enough effect; inconclusive means small, poorly fitted or top-dose-only effect, or another doubt; inactive means no such curve, though single readings can be large; an effect the other way counts as inactive or inconclusive. Potency means the concentration at half of the fitted maximal effect.

structure	SARS PLP yeast	2A StopGo	RE007 growth inh	LASV entry inh	NS1 function inh	Cruzain Triton	MARV entry inh	Cruzain inh noDet
COC(=O)c1ccc(NC(=S)NC2CCCCC2)cc1	7%	39%[activator]	-7%	0%	1%	-6.4%	4%	-7%
Cc1ccccc1CCN1CCCC(CN(C)CC(C)(C)C)C1 (stereo not drawn)	-2%	3%	2%	.	14%	.	.	.
Cn1c(=O)c2c(ncn2CC(=O)N2CCc3ccccc3C2)n(C)c1=O	-1%	11%	?	-7%	-7%	2.3%	-2%	-1%
CN(C)S(=O)(=O)c1ccc(N2CCCC2)c(C(=O)N2CCC(C(N)=O)CC2)c1	0%	-9%	-8%	-6%[46.1 µM]	.	.	3%	.
Cc1cc(Cl)nc(-c2ccccc2O)n1	0%	?	-12%	.	10%	.	.	.
COC(=O)CSc1nnc(-c2ccccn2)n1N	1%	-1%	-12%	0%	0%	.	?	.
FC(F)(F)c1cc(CCN2C(=S)NC[C@@H]2CC2CCCCC2)cc(C(F)(F)F)c1	9%	?	-10%	.	-5%	.	.	.
O=C(NCC1OCCc2ccccc21)c1ccco1 (stereo not drawn)	-2%	-1%	-1%	24%	-20%	-0.4%	5%	-6%
O=C(Nc1cccc(O)c1)C(=O)Nc1ccccn1	-51%	-82%	?	?	-12%	-1.0%	?	-3%
COc1cc2c(cc1OC)C(c1ccccc1OC(C)C)CC(=O)N2 (stereo not drawn)	0%	-3%	15%	?	18%	.	?	.
CCOC(=O)c1sc(NC(=O)c2cc3nc(-c4ccc(Br)cc4)cc(C(F)(F)F)n3n2)c(C(=O)OCC)c1C	.	-12%	.	-1%[46.1 µM]	.	4.1%	.	-5%
O=C(O)CC(NC(=O)COc1ccccc1)c1cccc([N+](=O)[O-])c1 (stereo not drawn)	0%	-15%	30%	20%	.	.	12%[46.1 µM]	.
CCOC(=O)c1c(C)n(C(C)C)c2ccc(OC(=O)c3ccc(N4C(=O)CCC4=O)cc3)cc12	12%	-10%	17%	?	?	-5.2%	?	?
COc1cc(S(=O)(=O)N2CCOCC2)ccc1NC(=O)CN1c2cccc3cccc(c23)S1(=O)=O	-19%	13%	6%	?	14%	-7.2%	-10%	24%
CC(=O)Nc1ccc(NC(=O)CCCSc2nc3ccccc3[nH]2)cc1	1%	-5%	-4%	7%	8%	.	6%	.
Cn1c(Nc2ccc(Cl)cc2)cc(=O)n(C)c1=O	-1%	-14%&-8%	2%	-10%&-2%[46.1 µM]	-2%	-2.9%	17%&-5%[46.1 µM]	14%
CCCCOC(=O)c1ccccc1N	.	-8%	-4%	.	.	3.4%	.	-4%
CCN(CC)S(=O)(=O)c1ccc(C)c(NC(=O)CSc2nnnn2C)c1	1%	-13%	-5%	-16%	.	.	?	.
Cc1ccc(NC(=O)CCc2ccc(C)o2)cc1	-2%	22%	-14%	-25%[46.1 µM]	-6%	.	13%[46.1 µM]	.
Cc1ccccc1NC(=O)c1c(C)oc2ccc(O)c(CN3CCOCC3)c12	.	-20%	.	?	.	-3.5%	?	-16%
O=C1NC(=O)N(Cc2ccc(F)cc2)C(=O)/C1=C/c1cccs1	7%	32µM*	14%	-4%	.	.	-22%	.
COc1ccc(Cl)cc1NC(=O)C/C(C)=N/NC(=O)c1ccc(O)cc1	-8%	12%	-10%	?	21%	.	3%	.
O=S(=O)(NNc1ccc(Cl)nn1)c1ccc(F)cc1	6%	103%[activator]	1%	0%	17%	-2.0%	?	-24%
CCOC(=O)C1CCN(C(=O)/C=C/c2ccc(S(=O)(=O)N3CCOCC3)cc2)CC1	-1%	-19%	1%	-2%	.	.	4%	.
COc1ccc(C2/C=C\CN(C(=O)c3ccccc3)CC(=O)N2Cc2ccc(F)cc2)cc1 (stereo not drawn)	5%	7%	5%	.	2%	.	.	.
CCOC(=O)Cn1nc(-c2ccccc2)c2cnc3ccc(CC)cc3c21	15%	0%	0%	8%	17%	-8.4%	41%	-8%
CCCN1CCC(NCc2cn(C)nc2-c2ccc(Oc3ccccc3)cc2)CC1	0%	-24%	-7%	.	1%	.	5%	.
CCOC(=O)c1[nH]c(C)c(C(=O)/C=C/c2ccc(C(=O)O)cc2)c1C	19%	4%	3%	.	-4%	.	?	.
CCN(CC)c1ccc(NC(=O)Cn2c(C(C)NC(=O)c3ccc(C)cc3)nc3ccccc32)cc1 (stereo not drawn)	0%	41%[activator]	-12%	-2%	4%	.	?	.
CC(C)N1CCN(Cc2cnc(-c3ccccc3)s2)CC1CCO (stereo not drawn)	0%	-14%	4%	?	-2%	.	2%	.
O=C(c1ccco1)N1CCN(S(=O)(=O)c2ccc(C3CCCCC3)cc2)CC1	-1%	?	6%	-25%	-1%	-8.3%	?	6%
O=C(CSc1nc(-c2ccccc2)no1)N1CCN(c2ccc(F)cc2)CC1	.	-16%	.	-3%[46.1 µM]	.	2.3%	.	-3%
OCCC1CN(Cc2ccc3ncccc3c2)CCN1Cc1ccccc1 (stereo not drawn)	0%	-3%	-29%	?	-5%	.	3%[46.1 µM]	.
CCN1CCN(C(=O)/C=C\C(=O)O)CC1	-3%	0%	-17%	-3%	5%	-1.5%	16%	-3%
Cc1nc2ccccc2c2oc(C(=O)N3CCC(N4CCCCC4)CC3)cc12	-4%	-23%	-5%	0%	-13%	-17%	-9%	-4%
Cc1[nH]c2ccccc2c1/C=C/c1cc[n+](C)cc1	-7%	-20%	?	?	-1%	-13%	-8%	-29%
CCCNS(=O)(=O)c1cc(Br)cc2c1N(C(=O)CC)CC2	-1%	109%[activator]	-9%	-4%	2%	2.2%	-12%	-3%
CCc1ccc(NC(=O)C2CCCN2S(=O)(=O)c2ccc3nc(-c4ccccc4)[nH]c3c2)cc1 (stereo not drawn)	.	-17%	.	5%[46.1 µM]	.	-0.9%	.	3%
O=S(=O)(c1cccc(-c2nnco2)c1)N1CCCC1	1%	-15%	-3%	1%	-9%	2.5%	-13%	-2%
Cc1cc(C)c(NS(=O)(=O)c2ccc3c(c2)NC(=O)C(C)C(=O)N3)c(C)c1 (stereo not drawn)	2%	?	2%	.	8%	.	.	.
Cc1nn(CC(=O)NCCCN2CCCC2=O)c(C)c1[N+](=O)[O-]	18%	-4%	13%	?	.	.	11µM*	.
CCCN1CNc2c(c(=O)[nH]c(=S)n2CCc2ccccc2)C1	-1%	-14%	-6%	5%	.	.	-2%&-2%[46.1 µM]	.
COc1cccc2[nH]c(C(=O)NCCCN3CCCC3=O)cc12	?	-2%	4%	.	10%	.	.	.
Cc1ccc(/C(O)=C/c2nc3ccccc3oc2=O)cc1	-3%	4%	?	-16%	-54%	.	?	.
COc1cc(NC(=O)c2c(-c3ccc(C)cc3)nnc3ccccc23)cc(OC)c1OC	.	24%	.	?	.	2.5%	.	4%
Cc1ccc(CNC(=O)CNC(=O)[C@@H]2Cc3ccccc3CN2C(=O)OC(C)(C)C)cc1	5%	11%	-25%	15%[46.1 µM]	-8%	.	?	.
COc1ccc(CCNCC(O)c2ccccc2)cc1 (stereo not drawn)	-1%	-5%	-12%	1%	.	.	.	.
CCNc1c(NC(C)=O)c(=O)oc2ccccc12	4%	-15%	-11%	21%	8%	-1.3%	7%	-10%
O=C(Cn1nnc(-c2ccccc2)n1)N1CCCCC1	-1%	86%[activator]	-4%	14%	8%	.	27%	.
Cc1cccc(CSc2nc3c(c(=O)[nH]2)CCC3)c1	0%	-3%&20%	7%	5%[46.1 µM]	.	0.9%	.	11%

(list continues)
structure	SARS PLP yeast	2A StopGo	RE007 growth inh	LASV entry inh	NS1 function inh	Cruzain Triton	MARV entry inh	Cruzain inh noDet
Cn1c(=Nc2ccc(N3CCOCC3)cc2)ccc2ccccc21	3%	-8%	-4%	2%	7%	-1.3%	-1%	-4%
O=C(NCCCn1ccnc1)c1nc(Cn2cc(Br)cn2)no1	0%	-4%	12%	.	-7%	.	.	.
Cc1nc(CS(=O)(=O)c2ccccc2)cc(Sc2ccccc2Cl)n1	-2%	15%	5%	-10%	-3%	-1.7%	.	1%
O=C1CCCc2sc3c(c2N1)CCCCC3	3%	0%	-5%	3%	-14%	-7.8%	-4%	-3%
c1ccc(CSc2cc3ccccc3[nH]2)cc1	.	56%[activator]	-18%	7%[46.1 µM]	.	.	?	.
CCCn1nc2cc(C(=O)NCCc3cccs3)ccc2c1OCC	-4%	58%[activator]	-9%	.	-5%	-5.6%	.	13%
O=C(NC1CCCN(Cc2ccccc2F)C1)C1CCC1 (stereo not drawn)	-1%	-14%	1%	?	17%	.	-9%	.
Cc1ccc(S(=O)(=O)NC2c3cccc4cccc(c34)C2Sc2nncn2C)cc1 (stereo not drawn)	27%	11%	2%	?	?	1.7%	?	-8%
Cc1cc2nnc(SCC(=O)OC(C)C)n2c2ccccc12	-2%	48%[activator]	15%	?	-15%	1.4%	-6%	-3%
Cc1ccc2nc(SCC(=O)NNC(=O)c3ccccc3)[nH]c2c1	2%	5%	2%	13%	9%	-6.4%	-28%	-4%
COC(=O)C1=NNC(C(=O)c2ccco2)C1c1ccccc1 (stereo not drawn)	3%	-16%	-5%	-1%	.	.	-2%	.
O=C(CC1Sc2ccccc2NC1=O)NNc1cccc(Cl)c1Cl (stereo not drawn)	.	-8%	14%	-15%[46.1 µM]	.	.	-8%	.
CC1=NN(C(C#N)c2ccccc2C)C(c2ccccc2)C1 (stereo not drawn)	2%	-14%	-23%	.	-5%	.	.	.
COc1ccc(NC(=O)COC(=O)c2ccc(O)cc2)c([N+](=O)[O-])c1	1%	7%	-10%	?	.	.	?	.
Cc1occc1-c1nnc(SCC(=O)NC2CCCC2)n1-c1ccccc1	23%	-15%	30%	10%	11%	-2.8%	-1%	11%
